Screening results deposited in PubChem BioAssay by National Center for Advancing Translational Sciences (NCATS).
Menin MLL FP FL = qHTS Assay for Inhibitors Targeting the Menin-MLL Interaction in MLL Related Leukemias: Competition With Fluorescein Labeled MLL-derived Peptide. 290,000 tested, under 10 active. FP activity change, % at 61.4 µM. Fluorescence polarization, fluorescein-MLL peptide displacement from menin; inconclusive = falling polarisation curve, or a change in total fluorescence; inactive = total fluorescence flat and polarisation flat or rising; no compound was filed as active; the % refers to the polarisation; negative = inhibition;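 note: % of control where 0% means no effect; inhibitors lower the polarisation; unlabelled MLL peptide was the positive control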
ClpP mod = qHTS Assay for Activators of ClpP | ATP-dependent Clp protease proteolytic subunit (Bacillus subtilis (strain 168)), P80244 | purified B. subtilis ClpP, FRET peptide cleavage, 20 min | Potency, µM (highest dose often 57.5 µM), without a hit: at the top dose activity change, negative = active | 340,000 tested, 1.9% active; active = well fitted falling curve with a large enough effect; inconclusive = small, poorly fitted or top-dose-only effect; inactive = no such curve, though single readings can be large or run the other way; note: potency is the fitted concentration of half-maximal effect; the source files actives as falling curves though it sought activators and does not explain the sign; nearly all actives have a fitted effect of over 65% in size; many hits overshoot -100%
Target sequence (P80244 whole entry, looked up): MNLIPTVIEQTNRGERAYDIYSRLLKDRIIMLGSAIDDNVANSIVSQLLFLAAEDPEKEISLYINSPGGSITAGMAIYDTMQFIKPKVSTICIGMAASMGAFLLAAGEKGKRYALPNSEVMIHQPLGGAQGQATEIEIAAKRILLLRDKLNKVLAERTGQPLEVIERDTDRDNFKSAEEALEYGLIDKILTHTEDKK
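Buffer: 100 mM Tris/HCl pH8, 100 mM KCl, 0.05% low protease BSA, 2.5% glycerol, 0.01% Tween-20. ClpP 10 microg/mL final; 20 min RT; delta FRET normalized to ADEP and DMSO controls.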
TRPV1 potentiator = HTS Assay for Compounds that Act as Potentiators of the Vanilloid Receptor 1. 320,000 tested, 0.02% active. potentiation, % at 8.33 µM. TRPV1-expressing cells, Fluo-8 calcium influx, capsaicin EC20 potentiation; host cell line not named in the record; control for the full effect not named in the record. Transient receptor potential cation channel subfamily V member 1 (Homo sapiens), Q8NER1; active means potentiation above 80%; inconclusive means 30% to 80%; inactive means below 30%; note: 0% is about no effect
Target sequence (Q8NER1 whole entry, looked up): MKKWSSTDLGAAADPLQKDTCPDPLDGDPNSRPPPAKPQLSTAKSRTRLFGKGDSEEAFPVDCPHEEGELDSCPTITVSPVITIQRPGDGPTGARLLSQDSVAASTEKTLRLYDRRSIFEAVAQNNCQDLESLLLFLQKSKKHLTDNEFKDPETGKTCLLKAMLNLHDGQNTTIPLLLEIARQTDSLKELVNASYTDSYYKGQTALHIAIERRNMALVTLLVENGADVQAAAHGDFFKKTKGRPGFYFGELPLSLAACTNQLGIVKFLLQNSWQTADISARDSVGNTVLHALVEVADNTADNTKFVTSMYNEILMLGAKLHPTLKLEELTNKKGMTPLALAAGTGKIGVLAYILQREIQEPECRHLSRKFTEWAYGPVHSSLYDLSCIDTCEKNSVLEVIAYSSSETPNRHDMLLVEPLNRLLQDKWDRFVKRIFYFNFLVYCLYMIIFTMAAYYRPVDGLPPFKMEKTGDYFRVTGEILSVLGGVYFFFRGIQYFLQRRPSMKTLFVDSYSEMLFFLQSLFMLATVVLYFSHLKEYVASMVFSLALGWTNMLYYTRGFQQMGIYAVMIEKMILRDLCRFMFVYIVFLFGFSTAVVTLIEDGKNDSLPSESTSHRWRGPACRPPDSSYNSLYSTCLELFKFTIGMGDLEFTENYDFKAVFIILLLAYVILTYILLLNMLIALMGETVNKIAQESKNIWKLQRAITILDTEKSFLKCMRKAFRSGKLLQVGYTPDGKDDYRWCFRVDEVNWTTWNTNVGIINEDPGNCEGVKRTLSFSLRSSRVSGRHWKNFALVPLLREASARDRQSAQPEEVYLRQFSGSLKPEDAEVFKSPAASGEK
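Cells expressing TRPV1 were dye-loaded with Fluo-8 and read kinetically: 10 s baseline, 3 min after compound (agonist portion), then 2 min after EC20 capsaicin (allosteric enhancer portion). Calcium-bound dye fluorescence at 480/520 nm.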
TRPML1 inh = qHTS for Inhibitors of the Human Mucolipin Transient Receptor Potential 1 (TRPML1); Mucolipin-1 (Homo sapiens), Q9GZU1; TRPML1-inducible cells, Ca2+ dye fluorescence, FDSS; stronger effect = lower value; inhibition of EC80 agonist-evoked calcium signal; activity change, negative = inhibition, % (concentration not given with the values); 390,000 tested, 0.02% active; in the data active means activity change below about -50%; inconclusive means about -30% to -50%; inactive means above about -30%;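 note: stimulus is agonist 54-4 at its EC80 concentration; % is set by controls: 0 for no effect and ±100 for the full control effect; compound concentration not given in the record; the text of the record puts the active cut at -80%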
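Tet-induced TRPML1-DL cells loaded with Ca8 no-wash calcium dye were read kinetically on FDSS. Compound addition was followed by EC80 agonist 54-4 (4 uM final); inhibition was read over 110 s.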
Sfp inh = qHTS Assay for Inhibitors of Bacillus subtilis Sfp phosphopantetheinyl transferase (PPTase); AID 1490, 2009; 310,000 tested, 3.5% active; Biochemical Sfp PPTase activity, qHTS; 4'-phosphopantetheinyl transferase ffp (Bacillus subtilis), Q9F4F7; Potency, µM, for the others: max response, negative = inhibition, most hits filed as inhibitors; active = well fitted inhibition curve with a large enough effect; inconclusive = small, poorly fitted or top-dose-only effect, or another doubt; inactive = no such curve, though single readings can be large or run the other way;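 note: the enzyme is Sfp with the accession as filed and its product quenches rhodamine fluorescence; potency is the fitted concentration of half-maximal effect; 0% = enzyme reaction without inhibitor and -100% = no enzyme wells; top concentration of the series not given in the record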
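With Hepes-Na pH 7.6 buffer containing 10 mM MgCl2, Sfp (15 nM) modified BHQ-2-YbbR (12.5 uM) using rhodamine-CoA (5 uM). Two reads 30 minutes apart at 525/598 nm yielded each well's rate.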
TRPML1 agonist = qHTS for Agonists of the Human Mucolipin Transient Receptor Potential 1 (TRPML1). Mucolipin-1 (Homo sapiens), Q9GZU1. TRPML1-expressing cells, Ca2+ dye fluorescence, FDSS; host cell line not named in the record; reference of the full effect not given here. AID 624414, 2012. 410,000 tested, 0.12% active. activation, % (concentration not given with the values); in the data active = activation above about 50%; inconclusive = about 30% to 50%; inactive = below about 30%; note: 0% is about no effect; the text of the record puts the active cut at 80%
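In this qHTS format, compounds were pin-transferred onto Ca8-dye-loaded TRPML1-DL cells induced with Tet overnight, and intracellular Ca2+ fluorescence was recorded kinetically for 110 s after a 10 s baseline. A subsequent 4uM final 54-4 (EC80) addition followed by a second 110 s read served as the antagonist phase.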
PINK1 expr mod = A Quantitative High throughput Screen to Identify Chemical Modulators of PINK1 Expression | PINK1 immunofluorescence, high-content cytometry, 24 h | Potency, µM (series often up to 76.6 µM), for inactives: at the top dose activation (PINK1 increase), most hits filed as activators | 410,000 tested, 0.2% active; active = well fitted activation curve with a large enough effect; inconclusive = small, poorly fitted or top-dose-only effect; inactive = flat fitted curve, though single readings scatter; cell line not stated here;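 note: potency is the fitted concentration of half-maximal effect; % of control where 0% means no effect; nearly all actives have a fitted effect of over 65% in size; a mitochondrial uncoupler was the plate control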
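Fluorescence from anti-PINK1 antibody, together with nuclear and cell stains, was scanned on a laser-scanning cytometer. Before staining, stable-line cells were incubated 24 hours with compounds at 5 concentrations; primary antibody 12 h at 10 degrees C.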
* = called active by the depositor; ? = inconclusive; · = no result given; [ ] = another dose, or the depositor's remark.

SMILES	Menin MLL FP FL	ClpP mod	TRPV1 potentiator	TRPML1 inh	Sfp inh	TRPML1 agonist	PINK1 expr mod
COc1cc2c(=O)n(Cc3ccco3)c(=O)n(CC(=O)c3ccc(Br)cc3)c2cc1OC	5.6	1.9%	3	-8	-43%	0.6	13%
COc1ccc(S(=O)(=O)N2CCCCC2)cc1NC(=O)C1CSC2(C)CCC(=O)N12 (stereo not given)	2.5	-2.2%	-7	-7	8%	-0.5	-0.1%
N#C/C(C(=O)NCc1ccccc1)=C1/N=C(NC(=O)c2cccs2)c2ccccc21	?	-3.5%	3	10	-27%	-0.1	-1.9%
N#Cc1cc(Br)ccc1N=C1CCCN1c1ccccc1	2.5	1.6%	24	-3	1%	1.3	4.3%
CCOC(=O)N1CCN(C(=O)c2ccc(Cn3c(=S)[nH]c4cc(C(=O)OC)ccc4c3=O)cc2)CC1	·	-1.8%	-22	18	1%	2.3	3.5%
COC(=O)c1c(NC(=O)C2CC2)sc2c1CCCC2	3.9	-25%	29	19	0%	1.5	6.7%
COc1cccc(CNC(=O)CN2C(=O)CCSc3ccc(S(=O)(=O)N4CCCC4)cc32)c1	1.1	-6.0%	-3	2	11%	0.3	-1.2%
O=C(N/N=C/C=C/c1ccco1)c1cccs1	?	·	-10	-13	10µM*	-0.7	-1.2%
CCCNc1c(N)c(=O)oc2ccccc12	-3.0	-6.7%	-1	-11	-21%	-0.4	4.0%[38.3 µM]
CCOC(=O)c1ccc2c(c1)N(Cc1ccccc1)C(=O)c1ccccc1S2	·	-6.1%	·	62	·	3.5	3.5%
CCc1ccc(/C=N/NC(=O)c2c[nH]c3ccccc23)s1	2.8	-4.6%	-14	-1	-9%	3.3	15%
COc1ccc(C(=O)N/N=C/c2ccc(OC)c(CN3CCN(c4ccc(F)cc4)CC3)c2)cc1	1.5	-24%	-7	14	-3%	0.2	-2.9%
Cc1ccc(N(C(=O)c2csnn2)C(C(=O)NC(C)(C)C)c2ccncc2)cc1 (stereo not given)	1.6	-2.0%	-6	23	18%	0.6	-6.0%[38.3 µM]
CCOC(=O)C(=CNc1cc(Cl)c(-c2ccco2)c(Cl)c1)C(=O)OCC	8.6	?	-3	14	-28%	1.0	3.4%
COc1ccccc1/C=C/c1onc(C)c1S(=O)(=O)N1CCC(C(=O)NC2CCCCCC2)CC1	-0.1	-0.1%	-6	12	15%	1.3	6.2%
CCOc1ccc(NC(=O)c2ccc3nc(Cc4ccccc4)oc3c2)cc1	·	-11%	·	-22	·	1.4	4.4%
Cc1nnc(SCC(=O)N2CCC(C(N)=O)CC2)s1	-1.6	0.0%	3	-17	6%	0.4	-0.7%
CCc1ccc2nc(N(CCCN(C)C)C(=O)c3ccc(S(=O)(=O)N4CCc5ccccc5C4)cc3)sc2c1	·	-1.9%	-13	-10	63µM*	1.1	2.2%
Cc1nnn(C23CC4CC(CC(C(=O)NN)(C4)C2)C3)n1	8.4	1.5%	-6	4	7%	1.0	0.4%
O=C(COC(=O)CCOc1ccccc1)Nc1ccc(Cl)cn1	0.3	-4.1%	-1	6	12%	0.0	1.0%
CCC(C)N(C(=O)COc1ccccc1C(=O)NCc1ccccc1)C1CCS(=O)(=O)C1 (stereo not given)	·	-3.5%	-6	21	11%	0.1	0.9%
COc1cc2c(cc1OC)C(c1ccccc1F)NCC2 (stereo not given)	-1.8	-1.2%	30	16	8%	0.1	0.4%
COc1cccc(-c2nn(-c3ccccc3)cc2CN2CCCO2)c1	2.2	·	-16	14	-1%	-0.5	2.5%
O=C(Cn1ncn2nc(-c3cccs3)cc2c1=O)NCc1ccccc1Cl	·	-14%	·	5	·	0.8	0.6%
Cc1ccccc1-c1cccc([C@@H]2C[C@H]3CN(Cc4cccnc4)C(=O)[C@]34CCCN24)c1	1.5	·	2	-6	0%	2.6	2.5%
COc1cc2c(cc1OC)C(COc1ccccc1OC)N(C(=O)CC(C)C)CC2 (stereo not given)	·	-0.4%	·	-2	·	2.4	0.3%
COc1ccc(CC(=O)Nc2ccc(C)cc2O)cc1S(=O)(=O)N1CCOCC1	·	0.4%	-2	-9	·	-0.4	-0.6%
CSc1ccc(C(c2c(C)[nH][nH]c2=O)c2c(C)[nH][nH]c2=O)cc1	-18	·	-12	3	-5%	1.6	-0.2%
NC(=O)N(CCC(=O)O)c1ccccc1	-2.5	0.5%	-2	-7	9%	0.2	0.0%
Cc1ccc(C2(SCC(N)C(=O)O)c3ccccc3-c3ccccc32)cc1 (stereo not given)	·	-0.9%	·	2	·	0.8	1.5%

3 of the compounds above, as a markdown table:
| Molecule | Menin MLL FP FL | ClpP mod | TRPV1 potentiator | TRPML1 inh | Sfp inh | TRPML1 agonist | PINK1 expr mod |
| --- | --- | --- | --- | --- | --- | --- | --- |
| COc1cc2c(cc1OC)C(c1ccccc1F)NCC2 (stereo not given) | -1.8 | -1.2% | 30 | 16 | 8% | 0.1 | 0.4% |
| COc1cccc(-c2nn(-c3ccccc3)cc2CN2CCCO2)c1 | 2.2 | · | -16 | 14 | -1% | -0.5 | 2.5% |
| O=C(Cn1ncn2nc(-c3cccs3)cc2c1=O)NCc1ccccc1Cl | · | -14% | · | 5 | · | 0.8 | 0.6% |

Following part
SMILES	Menin MLL FP FL	ClpP mod	TRPV1 potentiator	TRPML1 inh	Sfp inh	TRPML1 agonist	PINK1 expr mod
CCc1ccc(Nc2nnc(SCC(=O)Nc3cccnc3Cl)s2)cc1	3.1	-1.2%	-1	-12	12%	-0.7	-1.1%
CCN(CCCNC(=O)c1nn(-c2ccc(OC)cc2)c(=O)c2c1c1ccccc1n2C)c1ccccc1	·	-2.0%	·	23	·	3.8	1.8%
O=C(O)C/C(=C\c1ccc2c(c1)OCO2)c1nc2ccccc2s1	·	-5.3%	-3	10	-2%	-0.9	3.8%
N#Cc1nc(-c2ccc(F)cc2)oc1NCCCn1ccnc1	0.3	·	5	·	15%	·	·
CCC1(c2ccccc2)NC(=O)N(CC(=O)N(CC(=O)Nc2ccccc2C(F)(F)F)Cc2ccco2)C1=O (stereo not given)	·	0.9%	8	-13	·	7.2	8.5%
CC(=O)N1CCc2cc(Br)cc(S(=O)(=O)NCCCN(C)Cc3ccccc3)c21	-19	·	6	0	6%	-0.7	1.0%
CC(=O)Nc1cccc(C(=O)NCCc2ccco2)c1	4.0	·	-2	3	12%	-0.2	0.1%
CCOc1ccc(N(CC(=O)NC2CCCCCC2)S(=O)(=O)c2c(C)noc2C)cc1	0.6	0.0%	·	0	17%	0.6	8.8%
CN(C)Cc1c(-c2ccc(Cl)cc2)nc2ccc(Cl)cn12	-5.9	·	-18	6	18%	0.5	2.8%
COc1ccc2oc(C)c(C(=O)c3ccc(C)cc3)c2c1	1.2	-2.6%	2	-11	-10%	1.8	2.7%
COCCn1c(C)cc(C(=O)CN2c3cccc4cccc(c34)S2(=O)=O)c1C	·	0.3%	·	-18	·	1.0	0.3%
Cc1ccc(-c2noc(-c3ccc(N4CCCC4)c([N+](=O)[O-])c3)n2)cc1	·	-0.3%	·	-1	·	-0.8	1.5%
Oc1cc(O)c2c(c1)OC(c1ccc(O)c(O)c1)C(O)C2 (stereo not given)	9.2	2.5%	3	-2	45µM*	0.5	0.2%
CCN(CC)S(=O)(=O)c1cc(NC(=O)CN2C(=O)NC(C)(c3ccccc3)C2=O)ccc1C (stereo not given)	0.7	·	17	56	8%	6.3	2.4%
CCOc1ccc(N/C(=N/c2nc(C)cc(C)n2)NC(C)=O)cc1	?	·	-5	3	-2%	0.9	0.2%
Cc1csc(SCC(=O)Nc2sccc2C(N)=O)n1	5.1	0.1%	8	4	-24%	-1.4	0.9%
CCN(C[C@H]1N[C@@](CC)(C(=O)OC)[C@H]2C(=O)N(C)C(=O)[C@@H]12)C(=O)Nc1ccccc1	·	-0.3%	·	1	·	-0.4	4.5%
O=C(NCc1ccc(Cl)cc1)c1cc2c(s1)-c1ccccc1SC2	·	32µM*	·	37	·	1.5	2.4%
COc1cccc(CN2CCN(C(=O)c3cc(-c4ccncc4)nc4ccc(C)cc34)CC2)c1	·	1.0%	·	-11	·	-0.6	-2.6%
CCc1ccccc1N1C(=O)c2ccccc2S1(=O)=O	6.5	14%	-10	15	2%	3.5	1.3%
O=C(CSc1nc2ccccc2c(=O)[nH]1)Nc1ccccc1O	·	·	10	16	2%	2.7	-1.5%
CCOCCCN(C)C1CCN(C(=O)c2oc3ccccc3c2NC(=O)c2cccc([N+](=O)[O-])c2)CC1	·	-1.6%	-9	50	1%	1.3	-1.3%
COCC(=O)NC1CCCCCC1	-3.5	-2.6%	5	44	12%	0.4	1.7%
COc1cc(S(=O)(=O)NC2CC(C)(C)NC(C)(C)C2)c(OC)cc1Cl	0.7	·	-3	-8	14%	0.0	0.9%
COC(=O)C(CCSC)NC(=O)c1cccc([N+](=O)[O-])c1 (stereo not given)	0.6	-3.6%	-9	-8	16%	-0.4	-1.6%[38.3 µM]
CNC(=O)c1ccccc1Nc1ccc(SC(F)F)cc1	-3.8	-4.3%	0	·	12%	·	-0.5%
COc1ccc(CNC(=O)CN(Cc2ccccc2F)C(=O)c2csnn2)cc1	-3.8	·	-14	1	-3%	0.2	-4.3%
CCc1ccc(C(=O)/C=C/c2ccc([N+](=O)[O-])o2)cc1	?	0.9%	0	-8	-6%	-0.8	3.4%

A draw from above in order of molar mass, rising:
SMILES	Menin MLL FP FL	ClpP mod	TRPV1 potentiator	TRPML1 inh	Sfp inh	TRPML1 agonist	PINK1 expr mod
N#Cc1nc(-c2ccc(F)cc2)oc1NCCCn1ccnc1	0.3	·	5	·	15%	·	·
CSc1ccc(C(c2c(C)[nH][nH]c2=O)c2c(C)[nH][nH]c2=O)cc1	-18	·	-12	3	-5%	1.6	-0.2%
CCN(C[C@H]1N[C@@](CC)(C(=O)OC)[C@H]2C(=O)N(C)C(=O)[C@@H]12)C(=O)Nc1ccccc1	·	-0.3%	·	1	·	-0.4	4.5%
